INS promoter inh: inhibitors of insulin promoter-driven GFP, primary screen, imaging, TRM-6 cells (human fetal islet line), eGFP reporter, cell count; reporter expression induced with tamoxifen; inhibition, % at 2 µM; actives 0.9% (n = 130,000); AID 1273, 2008;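 active = inhibition above the mean plus 3 SD, with well images judged a real hit on visual review, cut at about 60% in these data, passing the limit was not always enough; inconclusive = inhibition over the cutoff but images rejected on review; inactive = inhibition not above the cutoff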
GALR2 ag: GALR2 receptor agonists, primary screen, cell-based | actives 0.48% (n = 140,000) | GALR2-expressing cells, agonist activation read-out | activation, %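 (tested at 5 µM)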;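 active = above mean plus 3 SD of all compounds, about 5% in these data, not always enough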;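 also: 0% = vehicle buffer wells and 100% = reference agonist at full effect; tested in CHO reporter cells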
Target sequence (O43603 whole entry, looked up): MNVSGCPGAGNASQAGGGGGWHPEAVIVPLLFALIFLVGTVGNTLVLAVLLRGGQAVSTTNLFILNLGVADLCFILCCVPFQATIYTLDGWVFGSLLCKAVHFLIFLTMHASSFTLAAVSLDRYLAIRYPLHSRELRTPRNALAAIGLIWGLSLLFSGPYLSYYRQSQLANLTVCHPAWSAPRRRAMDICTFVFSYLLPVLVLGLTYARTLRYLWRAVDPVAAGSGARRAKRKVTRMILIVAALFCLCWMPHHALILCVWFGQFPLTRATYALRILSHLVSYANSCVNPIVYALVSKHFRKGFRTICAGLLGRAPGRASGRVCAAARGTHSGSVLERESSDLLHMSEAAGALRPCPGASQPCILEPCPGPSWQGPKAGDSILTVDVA
PKD1 kinase inh: inhibitors of human PKD1 kinase, biochemical, fluorescence polarization | AID 797, 2007 | inhibition, %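 (about 10 µM by stock and volumes)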 | Serine/threonine-protein kinase D1 (Homo sapiens), Q15139 | actives 0.056% (n = 200,000) | PKD1 kinase fluorescence polarization assay;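 active = inhibition of 50% or more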;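 also: controls were vehicle for no effect and a reference inhibitor for full effect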
RGS16-Gao HTS: modulators of RGS16 binding to Galphao, primary screen, biochemical, human proteins, multiplexed bead flow cytometry. Regulator of G-protein signaling 16 (Homo sapiens) + Guanine nucleotide-binding protein …. actives 0.38% (n = 220,000). binding response (% of control), % at 10 µM. bead-based flow cytometry RGS16-Galphao binding, fluorescence; actives lie on both sides;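 active = below 25% or above 175%, edge rows of some plates excepted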;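 also: Galphao activated by GDP with aluminum fluoride before binding; 100% = wells without compound and 0% = beads without RGS; some results beyond the cut were filed as inactive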
Target sequence (O15492 whole entry, looked up): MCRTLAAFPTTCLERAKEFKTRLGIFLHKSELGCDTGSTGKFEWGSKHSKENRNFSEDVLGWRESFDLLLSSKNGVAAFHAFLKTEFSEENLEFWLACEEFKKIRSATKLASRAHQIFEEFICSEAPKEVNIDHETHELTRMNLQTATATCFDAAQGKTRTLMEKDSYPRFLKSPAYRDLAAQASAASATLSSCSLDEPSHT
Target sequence (P09471 whole entry, looked up): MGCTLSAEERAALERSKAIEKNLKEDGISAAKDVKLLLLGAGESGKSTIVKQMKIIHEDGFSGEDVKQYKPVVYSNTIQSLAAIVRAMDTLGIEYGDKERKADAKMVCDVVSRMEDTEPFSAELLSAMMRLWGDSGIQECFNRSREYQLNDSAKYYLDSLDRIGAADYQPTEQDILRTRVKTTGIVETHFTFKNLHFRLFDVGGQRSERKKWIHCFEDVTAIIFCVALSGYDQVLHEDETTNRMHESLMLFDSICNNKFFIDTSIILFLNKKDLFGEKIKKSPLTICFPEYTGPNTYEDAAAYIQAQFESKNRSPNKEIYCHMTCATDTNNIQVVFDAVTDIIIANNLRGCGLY
HSV augment: enhancers of HSV replication in host cells, fold increase, host cell viability; maximum fold increase; actives 0.005% (n = 220,000); HSV replication augmentation in cells;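 active = peak rise of 1.5-fold or more in the series; inconclusive = self-fluorescent or not available for retest; tested in PC3 cells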;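 also: first round at 10 µM; read as green reporter fluorescence; hits show the peak of a series up to 25 µM; 1 = signal of infected wells without compound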
INS promoter inh cell count: recorded beside INS promoter inh, whose call it bears; normalized cell count, %; measured here: cell count, toxicity; reference of the scale not given here;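 cells exposed to compound for 48 h; stained nuclei by imaging scaled within each plate; lower means fewer cells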
HSV augment primary fold: recorded beside HSV augment, whose call it bears; fold increase; compound at 10 µM; measured here: primary screen fold increase 10 uM; tested in PC3 cells;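 GFP signal in the first replicate; 1 = infected wells without compound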
An asterisk follows results filed as active; i = inactive; ? = inconclusive; nt = no result given.

SMILES | INS promoter inh | INS promoter inh cell count | GALR2 ag | PKD1 kinase inh | RGS16-Gao HTS | HSV augment | HSV augment primary fold
CC(Cn1cnc2ccccc21)C(=O)O (centres undefined) | 22 | 116 | -0.1 | -7 | 112 | i | 1.1
O=[N+]([O-])c1cccc(-n2nnnc2CN2CCCC2)c1 | -27 | 75 | nt | -5 | 96 | i | 0.96
O=C(COc1ccccc1Br)NC1CCCC1 | -66 | 83 | -0.2 | 0 | 100 | i | 0.98
CCn1c(O)c(N=NC(=O)CNc2ccc(C)cc2)c2ccccc21 | -27 | 39 | -1.4 | 2 | 37 | i | 1
O=C(Nc1ccccc1Oc1ccccc1)c1ccccc1F | 2 | 100 | -1.4 | 0 | 109 | i | 1.1
N#CC1=C2C=CC=CN2CC1=O | nt | nt | -1.6 | -10 | 101 | i | 1
COC(=O)c1ccc(OCC2c3cc(OC)c(OC)cc3CCN2C(=O)C2CC2)cc1 (centres undefined) | -60 | 118 | 1.3 | -4 | 111 | i | 0.88
COCCn1c(SCc2ccc(C(=O)OC)o2)nc2ccccc2c1=O | nt | nt | -1.4 | -9 | 85 | i | 0.98
Cc1cccc2c1N(CC(=O)OC(C)C)C(=O)C2=O | nt | nt | -2.6 | -16 | 78 | i | 1
CC(C)OC(=O)CC1C(=O)NCCN1C(=S)NC(=O)c1cccs1 (centres undefined) | nt | nt | nt | -8 | 102 | i | 0.94
Cc1ccc(S(=O)(=O)NCC(C)NS(=O)(=O)c2ccc(C)cc2)cc1 (centres undefined) | 17 | 116 | -1.1 | 8 | 96 | i | 0.87
Cc1ccc(C)c(C(=O)CSc2nnnn2C(C)C)c1 | 3 | 73 | 1.2 | -5 | 107 | i | 0.94
CS(=O)(=O)N1CCN(c2nc3ccccc3s2)CC1 | -36 | 83 | 0.1 | 4 | 104 | i | 0.91
O=C(O)c1ccc(N2C(=O)CSC2c2cccc([N+](=O)[O-])c2)cc1 (centres undefined) | nt | nt | nt | 13 | 104 | i | 0.92
O=c1c2ccccc2[nH]c(=S)n1CCN1CCCC1 | -83 | 136 | nt | 0 | 101 | i | 0.76
CCn1c(=O)c2c(nc3n2CCN3c2ccccc2)n(C)c1=O | nt | nt | nt | -6 | 106 | i | 0.87
CCOc1ccccc1NC(=S)N1CCC(NC(=O)c2ccco2)CC1 | nt | nt | nt | -1 | 103 | i | 0.91
COc1cc(NS(=O)(=O)c2ccc(C)cc2C)cc(OC)c1OC | nt | nt | -0.9 | -9 | 87 | i | 0.93
Cc1ccc(N2C(=O)CC(n3nc(C)cc3C)C2=O)cc1 (centres undefined) | 40 | 102 | -1.6 | -4 | 98 | i | 0.73
CC(C)(C)n1nnnc1C(c1ccccn1)N(Cc1ccccc1)Cc1ccc(Cl)cc1 (centres undefined) | nt | nt | -2.5 | -3 | 103 | i | 1.1
COc1cccc(CN(C)CC(=O)Nc2ccccc2C(=O)Nc2ccccc2)c1 | nt | nt | nt | -3 | 92 | i | 0.98
CCc1ccc(OCC(=O)N2c3ccccc3CCc3ccccc32)cc1 | -18 | 97 | -1.0 | -6 | 91 | i | 0.96
CCOC(=O)Cc1c(C)nc2c(-c3ccc(OC)cc3)c(C)nn2c1C | 50 | 79 | -1.4 | -8 | 103 | i | 0.92
CCOc1ccc(NC(=S)Nc2cc(OC)c(Cl)cc2OC)cc1 | -20 | 55 | -1.6 | -6 | 52 | i | 0.98
Cc1nn(C)c(C(=O)Nc2ccn(Cc3c(F)c(F)cc(F)c3F)n2)c1[N+](=O)[O-] | 36 | 94 | -1.3 | 3 | 106 | nt | nt
O=C(COc1ccc(/C=N/NC(=O)c2cc3ccccc3o2)cc1Br)Nc1ccccc1 | 20 | 78 | 0.1 | -7 | 102 | i | 0.54
O=C(NCCCO)c1nc2ccccc2s1 | 28 | 204 | -3.0 | -5 | 134 | i | 1
COC(=O)c1cn(NC(=O)COc2ccc(Cl)cc2)c(=O)c2ccccc12 | -44 | 97 | nt | -8 | 110 | i | 1
Cc1ccc2cc(S(=O)(=O)NCCCN3CCOCC3)ccc2c1 | nt | nt | nt | 2 | 171 | i | 1.1
COc1cccc(S(=O)(=O)NCc2ccc(C(=O)NCc3ccco3)cc2)c1 | -160 | 51 | 0.3 | -9 | 105 | i | 1
COc1ccc(NC(=O)c2ccc(-n3cccn3)nc2)cc1 | 7 | 101 | -2.3 | -5 | 145 | i | 0.63
Cc1noc(C)c1COC(=O)c1cccc(S(=O)(=O)N2c3ccccc3CC2C)c1 (centres undefined) | nt | nt | -0.6 | 1 | 80 | i | 0.98
COCCNC(=O)c1c(N)n(/N=C/c2cccs2)c2nc3ccccc3nc12 | 10 | 77 | 1.1 | 1 | 98 | i | 0.95
COc1ccc(C2(C(=O)Nc3ccc(S(=O)(=O)Nc4nc(C)cc(C)n4)cc3)CCCC2)cc1OC | -41 | 100 | -0.3 | 9 | 105 | i | 0.97
O=C(Nc1cccnc1)c1ccccc1Oc1ccccc1 | 23 | 129 | -2.2 | -7 | 105 | i | 0.91
CC(C)CCNC(=O)C1CCN(c2nc3ccccc3o2)CC1 | nt | nt | -1.8 | 7 | 91 | i | 0.91
Cc1ccc(-c2nc(CS(=O)CC(=O)NCCN3CCOCC3)c(C)o2)cc1 (centres undefined) | nt | nt | -4.1 | -16 | 104 | i | 0.83
c1ccc(-c2noc(CN3CCN(c4ccccc4)CC3)n2)cc1 | nt | nt | -2.3 | 5 | 102 | i | 1.2
C#CC(C)OC(=O)C(C)NC(=O)c1ccccc1 (centres undefined) | nt | nt | nt | nt | 90 | i | 0.89
Cc1ccnc2nc(C(=O)OCC(=O)NCCc3ccc(Cl)cc3)nn12 | 58 | 99 | -3.0 | -5 | 99 | i | 0.88
CCOC(=O)N1CCN(Cc2c(NC(=O)c3ccco3)sc(C)c2C)CC1 | -82 | 91 | nt | -3 | 101 | i | 1
O=C1CCCC2=C1Sc1ccc(Cl)cc1N2 | nt | nt | nt | nt | 102 | i | 1.2
COc1ccc(/C=N/NC(=O)CNc2c(Br)cc(C)cc2Br)c(C(=O)O)c1OC | nt | nt | nt | -8 | 99 | i | 0.98
COc1ccc(NC2=C(C(C)=O)C(c3ccc(N(C)C)cc3)C(C(C)=O)C(C)(O)C2)cc1 (centres undefined) | -106 | 121 | nt | -13 | 97 | i | 0.93
O=C(Nc1c(Cl)ccc2nsnc12)c1ccco1 | nt | nt | nt | -5 | 101 | i | 0.9
Cc1ccccc1NS(=O)(=O)c1ccc2[nH]cc(C(=O)NCCCN3CCOCC3)c(=O)c2c1 | nt | nt | 0.0 | -5 | 94 | i | 0.91
N#C/C(=C(/O)COC(=O)c1ccc(C#N)cc1)c1nc2ccccc2s1 | -48 | 132 | -1.2 | -5 | 98 | i | 1
CN(CC(=O)Nc1sccc1C#N)C1CCCCC1 | 19 | 107 | -0.7 | -2 | 101 | i | 1.1
COCCNC(=O)C(c1ccc(C)cc1)N(C(=O)C(=O)NC1CCCC1)c1ccc2c(c1)OCCO2 (centres undefined) | 24 | 127 | nt | -2 | 95 | i | 0.99
O=C(NCc1ccncc1)Nc1ccc(F)cc1 | -21 | 42 | -1.8 | 2 | 107 | i | 0.96
Nc1nc(CN2CCN(C(=O)c3ccco3)CC2)nc(Nc2cccc(Cl)c2)n1 | 67 | 105 | nt | -2 | 102 | i | 0.95
CN1CCc2c(n(CC(O)CN3C(=O)c4ccccc4S3(=O)=O)c3ccccc23)C1=O (centres undefined) | nt | nt | -1.1 | -4 | 139 | i | 0.96
CCOc1ccc2cc(C#N)c(SCC(=O)N3CCCC3)nc2c1 | -29 | 113 | -0.6 | -3 | nt | nt | nt
CCCC12CN3CC(CCC)(CN(C1)C3c1ccco1)C2=O (centres undefined) | nt | nt | nt | nt | 99 | i | 1.3
CC(C)(C)SCCNC(=O)/C=C/c1ccccc1 | nt | nt | nt | nt | 81 | i | 1.1
COC(CNC(=O)c1ccc2nc(-c3cccs3)c(-c3cccs3)nc2c1)OC | nt | nt | 1.8 | 1 | 98 | i | 0.91
OC(CNCc1cccc(Br)c1)c1ccccc1 (centres undefined) | 5 | 196 | nt | -3 | 98 | i | 0.81
CC(C)C(NS(=O)(=O)c1cc(C(=O)O)ccc1Cl)C(=O)O (centres undefined) | nt | nt | nt | 1 | 102 | i | 0.95
Cc1onc(-c2c(Cl)cccc2Cl)c1C(=O)c1c[nH]c(C(=O)NCCCN2CCOCC2)c1 | 47 | 71 | -1.6 | 5 | 94 | i | 0.87
Cc1ccc(S(=O)(=O)c2c(COC(=O)c3ccccc3Cl)c(-c3ccccc3)nn2C)cc1 | -16 | 151 | -2.9 | -9 | 100 | i | 1.1
Going on with the list:
SMILES | INS promoter inh | INS promoter inh cell count | GALR2 ag | PKD1 kinase inh | RGS16-Gao HTS | HSV augment | HSV augment primary fold
O=C(NCCCn1ccnc1)C(=O)c1c[nH]c2ccccc12 | 10 | 129 | nt | 0 | 114 | i | 0.93
O=C(c1nnc(Cc2ccc(Cl)cc2)o1)N1CCc2ccccc2C1 | 5 | 108 | -1.1 | -6 | 101 | i | 0.94
COc1ccc(-c2nc3ccc([N+](=O)[O-])cc3[nH]2)cc1 | 41 | 126 | -0.7 | -4 | 109 | i | 0.91
Cc1ccc(S(=O)(=O)Nc2ccc(N(C)C)cc2)cc1 | 0 | 138 | nt | 4 | 100 | i | 0.97
CCSc1ccc(-c2cccc([N+](=O)[O-])c2)nn1 | nt | nt | nt | -8 | 101 | i | 0.91
COc1ccc(O)c(-c2c(-c3ccc(Cl)cc3)n[nH]c2C)c1 | -36 | 124 | -0.1 | 0 | 100 | i | 0.99
CC(C)(C)C(=O)Oc1ccc2cc(-c3ccc4ccccc4n3)c(=O)oc2c1 | 43 | 94 | 0.1 | -19 | 72 | ? | nt
Cc1ccc(S(=O)(=O)N2CCN(C(=O)CSc3nnc(-c4ccco4)o3)CC2)cc1 | nt | nt | -1.2 | -19 | 98 | i | 0.96
Cc1ccc(SCCNC(=S)Nc2ccc(C)cc2C)cc1 | -41 | 133 | -1.3 | 4 | 98 | i | 0.92
O=C(CSc1ccccc1C(=O)O)NC1CCCCCC1 | nt | nt | nt | nt | 97 | i | 0.92
Cc1ccc(C)c(Cn2c(CN(C)Cc3ccccc3)nc3c2c(=O)n(C)c(=O)n3C)c1 | nt | nt | -3.4 | -7 | 101 | i | 0.79
CCC/C=C(\CCC)C(NC(=O)Cc1ccccc1)c1ccc(C(=O)OC)cc1 (centres undefined) | 50 | 118 | -1.9 | 0 | 103 | i | 1.1
O=C(Cc1cccs1)NCCSc1c(-c2ccc(Cl)cc2)[nH]c2ccccc12 | -51 | 52 | -1.3 | -6 | 107 | nt | nt
Cc1c(N)cccc1-c1nc2ccccc2[nH]1 | -44 | 126 | -1.5 | -2 | nt | i | 1
CC(NC(=O)c1csc2ccccc12)C1CCCO1 (centres undefined) | 33 | 70 | -2.0 | -11 | 98 | i | 0.84
CCOC(=O)/C=C/C(=O)Nc1ccccc1C(=O)NC1CCCCC1 | -42 | 109 | 0.6 | 15 | 43 | nt | nt
